High-throughput results (PubChem BioAssay)
HPGD block = inhibitors of human 15-hydroxyprostaglandin dehydrogenase (HPGD). P15428. purified HPGD, NADH fluorescence kinetic, PGE2 substrate. Potency, µM, without a hit: top-dose activity change, negative = inhibition, hits mostly inhibitors. actives 4.3% (n = 150,000). AID 894; active = well fitted inhibition curve with a large enough effect (not every such curve was filed as active); inconclusive = small, poorly fitted or top-dose-only effect, or another doubt; inactive = no such curve, though single readings can be large or run the other way;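 note: top concentration of the series not given in the record; plate controls included wells without enzyme; inactives centre near -10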
Target sequence (P15428 whole entry, looked up): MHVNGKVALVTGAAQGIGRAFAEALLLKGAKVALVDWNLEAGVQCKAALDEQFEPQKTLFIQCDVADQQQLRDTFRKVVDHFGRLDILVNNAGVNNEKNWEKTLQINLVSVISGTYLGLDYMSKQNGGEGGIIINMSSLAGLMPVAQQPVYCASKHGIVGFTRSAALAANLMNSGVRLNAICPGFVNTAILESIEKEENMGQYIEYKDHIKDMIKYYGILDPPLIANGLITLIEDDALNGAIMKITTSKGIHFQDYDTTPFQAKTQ
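20 nM HPGD preincubated 15 min at room temperature with compound in 50 mM Tris-HCl pH 8, 0.01% Tween 20. Started with 1 mM NAD+ and 30 uM prostaglandin E2; NADH fluorescence (360/450 nm) read 5 times over 30-s intervals, last minus first.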
* hit, by the source's call; ? = inconclusive; & = joins results of further samples. % is set by controls: 0 for no effect and ±100 for the full control effect; potency is the fitted concentration of half-maximal effect. Some of the compounds tested; count on the stated rates, not on these rows.

HPGD block	molecule
-10.4%	C[C@]12CC[C@H]3c4ccc(O)cc4CC[C@@H]3[C@H]1CC[C@@H]2OC(=O)CCc1ccccc1
-20.3%	Cc1nc(Cl)c(C(=O)NC(C)(C)C)c(C)c1Cl
-14.8%	Cc1ccc(/C=N/NC(=O)c2ccc(Cn3cc([N+](=O)[O-])cn3)o2)cc1
-1.0%	C=CCC1(C)C(=O)N(c2ccccc2)c2ccccc21 (stereo unspecified)
-14.7%	Cn1c(=O)cc(OCCCC(=O)NCc2ccccn2)c2ccccc21
-24.3%	CCOC(=O)c1sc2ccc(S(=O)(=O)N3CC(C)CC(C)C3)cc2c1N (stereo unspecified)
-10.4%	Cc1nc2sc(C(c3ccc(Cl)cc3)N3CCN(c4ccccc4F)CC3)c(O)n2n1 (stereo unspecified)
-17.6%	Cn1c(Cn2nnc3ccccc32)nnc1SCC(=O)c1ccccc1F
-3.1%	CCOC(=O)c1c(-c2ccc(C)cc2)csc1NC(=S)NC(=O)c1ccccc1
-24.0%	COC(=O)CCC(=O)c1oc2ccc(OC)cc2c1N
3.0%	CCNC(=S)Nc1ccc(Cl)cc1Cl
-16.8%	O=C(COc1ccccc1)NCc1nnc2c3ccccc3c(-c3ccccc3)nn12
-10.7%	C1CCc2c(nc3nnnn3c2N2CCOCC2)C1
-23.2%	COc1ccc(Nc2nc(-c3cccs3)nc3ccccc23)cc1
5.1%	COC(=O)C1=C(C(=O)OC)[C@@H]2N(Cc3ccccc3)c3ccccc3[C@@]23C[C@@H](C(=O)OC)N(C(=O)C2CCC2)C3=N1
-10.9%	O=C(COc1ccc2ccccc2c1)N1CCN(c2ccccc2O)CC1
-4.3%	Cc1cc(C)c(C)c(Oc2ncnc(N)c2[N+](=O)[O-])c1
-16.0%	Cc1ccc(CO)cc1
-18.3%	CCOCCCn1c(=S)[nH]c2ncccc2c1=O
-0.8%	CN(C)C(=O)Cn1c(=O)n(C)c2ccccc21
-24.1%	Cc1nn(Cc2ccccc2)c(Cl)c1/C=N/NC(=O)c1cccnc1
-1.0%	O=C(CN1C(=O)c2ccccc2S1(=O)=O)Nc1cccnc1
-8.4%	O=C(N=Nc1c(O)[nH]c2ccc([N+](=O)[O-])cc12)c1cc(-c2ccccc2Cl)nc2ccccc12
-8.4%	c1ccc(-n2ncc3c(N4CCC5(CC4)OCCO5)ncnc32)cc1
-10.6%	COC(=O)C1(CCSC)NC(c2ccco2)C2C(=O)N(C)C(=O)C21 (stereo unspecified)
-3.6%	COc1cccc(Sc2cc(N3CCOCC3)nc(-c3ccccc3)n2)c1
-5.8%	COC(=O)c1cc(=O)nc2sc3ccccc3n12
-21.9%	CC(=O)Oc1ccc([N+](=O)[O-])cc1N1C(=O)c2ccccc2C1=O
-6.8%	O=C(O)c1c2c(nc3ccccc13)CCCCC2
?	CC1N(C)c2cccc3cccc(c23)N1C
4.5%&6.0%	O=C(O)c1cc(=O)cc(C(=O)O)[nH]1
-8.8%	CN1CCC(=NNC(=O)c2ccc(N(Cc3ccc(Cl)cc3)S(C)(=O)=O)cc2)CC1
22.4µM*	Cc1nn(CCCC(=O)Nc2sc3c(c2C#N)CCC3)c(C)c1[N+](=O)[O-]
-5.9%	Cc1ccc(S(=O)(=O)N2CCCC(C(=O)N(Cc3cccs3)C3CC3)C2)cc1 (stereo unspecified)
?	Cc1ccc2nc(-c3ccc(NC(=O)c4ccc(N)cc4)c(S(=O)(=O)O)c3)sc2c1
-5.5%	c1ccc(Cn2nnnc2C(c2cccs2)N2CCOCC2)cc1 (stereo unspecified)
-12.5%	CCNc1ncc2nc(-c3cccs3)c(=O)n(-c3ccc(OC)cc3)c2n1
-24.8%	C/C(=N\NC(=O)c1nn(C)c(C)c1Br)c1ccc(NC(=O)c2ccccc2F)cc1
-15.9%	Nn1c(Cc2cccc3ccccc23)nnc1SCn1nnc2ccccc2c1=O
-13.3%	O=C(CSc1ncnc2c1cnn2CCc1ccccc1)Nc1cccc(C(F)(F)F)c1
-19.3%	CC(=O)NS(=O)(=O)c1ccc(NC(=O)/C=C/c2ccccc2Cl)cc1
-6.0%	CCCn1c(C)nc2c(NCCCN3CCCCC3C)nc(C)nc21 (stereo unspecified)
-13.3%	CCOC(=O)C1=C(C)NC(C)=C(C(=O)OCC)C1c1ccc(Br)o1
3.0%	COC(=O)C(C(=O)OC)C(C(C)C)C(C(=O)OC)C(=O)OC
-1.0%	Cc1cccc(C)c1NC(=O)CSc1nnc([C@H](C)NC(=O)OC(C)(C)C)o1
-25.2%	N=c1c2c3c(sc2ncn1Cc1ccco1)CCCCC3
-8.3%	CCOC(=O)N1CCN(C(=O)CSc2nnc(Cc3ccccc3)o2)CC1
-6.8%	Cc1cc(C)c(C)c(C(=O)COC(=O)CNC(=O)CN2C(=O)c3ccccc3C2=O)c1C
-13.1%	COc1ccc(C(=O)NC(=S)Nc2ccc(N3CCCC3)cc2)cc1OC
?	Cn1c(N)c(S(=O)(=O)c2ccc(Br)cc2)c2nc3ccccc3nc21
-10.9%	O=C(c1cccc(Cl)c1)N1CCC(=O)N(C(COCc2cccc(Cl)c2)Cc2ccccc2)CC1 (stereo unspecified)
-10.0%	O=C(OCC(=O)N1CCc2ccccc21)c1c2c(nc3ccccc13)CCCCC2
-6.6%	COc1ccc(Oc2ccc3c(C(F)(F)F)cc(C(F)(F)F)nc3n2)cc1
-9.7%	COc1ccc(N2CCN(Cc3cc(=O)oc4ccc(C)cc34)CC2)cc1
-4.4%	C=CCN(C(=O)Nc1ccc2oc(C)nc2c1)c1ccccc1
-11.5%	CN(C(=S)Nc1ccc(Oc2ccccc2)cc1)C1CCCCC1
?	Brc1cccc(-c2n[nH]c(-c3ccccc3)n2)c1
39.8µM*	Cn1c(=O)c2c(nc(SCc3cccnc3)n2Cc2ccc(F)cc2)n(C)c1=O
-12.5%	COc1cc(C(O)CO)ccc1O (stereo unspecified)
-4.6%	Cc1ccc(C(=O)NNC(=O)CSc2nc(N)cc(N)n2)cc1

Carrying on:
HPGD block	molecule
-14.9%	NC(Cc1cnc[nH]1)C(=O)Nc1ccc2ccccc2c1 (stereo unspecified)
?	CCOC(=O)Cc1csc(SCC(=O)NC2CCCCC2)n1
-12.2%	O=C(N/N=C/c1cccc(OCc2ccccc2)c1)c1cccs1
-1.6%&-2.9%	CC1(OC(=O)c2cccs2)C(=O)C=C2C=C(C3CC3)OC=C2C1=O (stereo unspecified)
?	COC(=O)c1c(NC(=O)c2ccccc2)sc(Cc2ccccc2)c1C
-7.0%	CC(C)C1=CC2=CC[C@H]3[C@](C)(C(=O)O)CCC[C@]3(C)C2CC1 (stereo partly specified)
22.4µM*	CCOc1ccccc1C(=O)NCc1ccco1
-17.1%	O=S(=O)(CCc1nnc(-c2ccc(Br)cc2)o1)c1ccc(Cl)cc1
-8.8%	Cc1cc(-c2c(C)[nH]n(-c3ccc(Cl)cc3)c2=O)n(-c2ccc(Cl)cc2)n1
-18.1%	N#CCCn1c(=O)c(-c2ccc(F)cc2)nc2cnc(Oc3cccc(Cl)c3)nc21
?	N#Cc1c(N)nc(N2CCCC2)c(C#N)c1-c1ccc(Cl)cc1
1.2%	CCCCn1nc(C(=O)N2CCc3ccccc32)c2ccccc2c1=O
-17.6%	O=C(Nc1ccc(F)cc1)C(c1ccccc1)N1CCN(C(=O)c2ccco2)CC1 (stereo unspecified)
-9.3%	Cc1ccc(NC(=O)CCn2c(=O)oc3ccccc32)c(C)c1
-1.2%	CC(C)(C)NCC[C@@H](O)c1cc(C(F)(F)F)nc2c(C(F)(F)F)cccc12
-10.6%&4.2%	N[C@H](C(=O)N[C@@H]1C(=O)N2C(C(=O)O)=C(Cl)CS[C@@H]12)c1ccccc1
-20.3%	CN(Cc1cnc2nc(N)nc(N)c2n1)c1ccc(C(=O)NC(CCC(=O)O)C(=O)O)cc1 (stereo unspecified)
-11.1%	Cc1ccc(C(=O)NC2CCN(C(=O)NC3CCCCC3)CC2)cc1
-4.1%	O=C(Nc1cccnc1)c1ccc(S(=O)(=O)N2CCCCCC2)cc1
-5.4%	CCN(CC)S(=O)(=O)c1cc(C(=O)OCC(=O)NC(=O)c2cccn2C)ccc1C

Arranged by length of the SMILES (high to low): some entries from above
HPGD block	molecule
-10.6%&4.2%	N[C@H](C(=O)N[C@@H]1C(=O)N2C(C(=O)O)=C(Cl)CS[C@@H]12)c1ccccc1
-20.3%	CN(Cc1cnc2nc(N)nc(N)c2n1)c1ccc(C(=O)NC(CCC(=O)O)C(=O)O)cc1 (stereo unspecified)
-1.2%	CC(C)(C)NCC[C@@H](O)c1cc(C(F)(F)F)nc2c(C(F)(F)F)cccc12
-1.6%&-2.9%	CC1(OC(=O)c2cccs2)C(=O)C=C2C=C(C3CC3)OC=C2C1=O (stereo unspecified)
-17.1%	O=S(=O)(CCc1nnc(-c2ccc(Br)cc2)o1)c1ccc(Cl)cc1

More records follow.
HPGD block	molecule
-10.8%	COc1ccc(C2=NN(c3nc4ccccc4s3)C(=O)/C2=C\N(C)C)cc1
-13.9%	COc1ccccc1NC(=O)CSc1nnc(-c2ccncc2)n1CC1CCCO1 (stereo unspecified)
-11.8%	CCC(=O)Nc1ccc2c(c1)nc1n2CCSC1
-5.4%	N#CCCn1c(SCC(=O)NCCc2ccc(F)cc2)nc2ccccc21
-14.1%	OC(COc1ccc2ccccc2c1Br)Cn1cnc(-c2ccccc2)c1 (stereo unspecified)
-15.7%	CSC1=N/C(=C\c2ccc3c(c2)OCO3)C(=O)S1
?	CCOC(=O)C(C)Sc1nc2c(c(=O)[nH]c(=O)n2C)n1Cc1ccc(Cl)cc1 (stereo unspecified)
-9.9%	CCOC(=O)c1cnn(-c2cc(Oc3ccccc3C)ncn2)c1N
-2.3%	CCC/C=C(\CCC)C(NS(C)(=O)=O)c1ccccc1 (stereo unspecified)
-15.6%	COc1ccc(-n2c(SCC(=O)NCc3ccco3)nc3c([nH]c4ccccc43)c2=O)cc1
-13.0%	CCOC(=O)NC(O)C(=O)c1cccs1 (stereo unspecified)
-4.2%	COC(=O)c1c(NC(=O)CSc2nnc(CNc3ccc(Cl)cc3)o2)sc(C)c1C
-19.9%	CCCNC(=S)N(Cc1ccccc1)Cc1nc2ccccc2c(=O)[nH]1
?	Cc1ccc2nc3c(cc(C(=O)NCCCn4ccnc4)n3C)c(=O)n2c1
0.4%	O=C(CNS(=O)(=O)c1ccccc1)NCC(=O)OCc1ccccc1F
-5.5%	O=C1C2C3C=CC(C3)C2C(=O)N1CCCCN1C(=O)C2C3C=CC(C3)C2C1=O (stereo unspecified)
-9.7%	COC(=O)C1=C(C)OC(N)=C(C#N)C1c1ccco1 (stereo unspecified)
22.4µM*	O=C(CSc1nnc2sc3ccccc3n12)c1ccco1
1.9%	O=C1c2ccccc2C(=O)N1n1cccc1
-1.6%	CC(=O)Nc1ccc(S(=O)(=O)NC(CC(=O)O)c2ccc(OC(C)C)cc2)cc1 (stereo unspecified)
-11.8%	Cn1nc(OCC(N)=O)ccc1=O
-8.4%	Cc1cccc(NC(=O)C2CCCN(c3nc(C)cc(C)n3)C2)c1 (stereo unspecified)
-14.0%	CCOc1ccccc1N1CCN(c2nc3ccccc3nc2C(C#N)C(=O)OC)CC1 (stereo unspecified)
0.9%	COc1cc(OC)c(N(C)C(=O)CCNC(=O)Cn2cnc3ccccc3c2=O)cc1Cl
-8.0%	CC(=O)c1oc2ccccc2c1NC(=O)CN1CCCCC1
-12.5%	O=C(Nc1nsc(-c2ccccc2)n1)c1ccncc1
-6.9%	COc1ccc(S(=O)(=O)NCCC(=O)NC2CCCCCCC2)cc1
-7.8%	Cc1ccc(S(=O)(=O)NNC(=O)C2CCN(Cc3ccccc3)CC2)cc1
-14.8%	CC(=O)O[C@]1(C(C)=O)CC[C@H]2[C@@H]3C=C(C)C4=CC(=O)CC[C@]4(C)[C@H]3CC[C@@]21C
-14.9%	CCOC(=O)C1=C(Nc2ccc(C)cc2)CC(C)(O)C(C(=O)OCC)C1c1ccccc1 (stereo unspecified)
?	CCOC(=O)c1cn(CC)c2cc(N3CCOCC3)c(F)cc2c1=O
?	COc1ccc(-n2ncc3c(NCC(C)C)ncnc32)cc1
-14.8%	O=C(CCc1nc2ccccc2[nH]1)NCc1ccc2c(c1)OCO2
-27.5%	CCc1nnc(NC(=O)/C=C/c2ccco2)s1
-0.3%	CC(=O)CC(C)(C)S(=O)(=O)c1ccc(Oc2ccc(S(=O)(=O)C(C)(C)CC(C)=O)cc2)cc1
-29.8%	N#CC1(c2ccc(NC(=O)c3ccccc3F)cc2)CCCC1
?	CCn1c(C)cc(/C=C2/SC(=S)NC2=O)c1C
-6.3%	Cc1nnc(SCC(=O)N2CCOCC2)s1
-11.2%	CC1(C)C(=O)Nc2ccccc2N1C(=O)CSc1nnc2ccccn12
-7.6%	COc1ccccc1/C=C/C(=O)N1CCC(c2ccccc2)C1 (stereo unspecified)
?	CCC(C)c1ccc2oc(-c3ccc(NC(=O)Cn4cnc5c(=O)n(C)c(=O)n(C)c54)cc3)nc2c1 (stereo unspecified)
-8.5%&-13.1%	COc1ccc2c(c1)O[C@H](c1ccc3c(c1)OCO3)[C@@H](O)C2=O
-0.5%	Cn1c(=O)n(C)c2cc(S(=O)(=O)NCc3ccccc3)ccc21
-11.7%	O=C(NCc1nc2ncc(Br)cc2[nH]1)c1ccccc1
-2.6%	N#CC(C#N)=C1NC2(CCCC2)Cc2ccccc21
-5.0%	O=C(O)c1ccc2c(=O)[nH]c(CN3CCOCC3)nc2c1
22.4µM*	CC(C)Cc1c2c([nH]c(=S)c1C#N)CCCC2
-28.1%	CCOC(=O)c1cnc2c(OC)cccc2c1N1CCN(c2ccc(OC)cc2)CC1
-12.2%	Cc1ncc(S(=O)(=O)c2ccccc2)c(-c2ccccc2Cl)n1

Some of the entries so far, with each value named.
Cn1c(=O)n(C)c2cc(S(=O)(=O)NCc3ccccc3)ccc21
  HPGD block: -0.5%
O=C(NCc1nc2ncc(Br)cc2[nH]1)c1ccccc1
  HPGD block: -11.7%
